KCNQ2 pot: enhances the rat KCNQ2 potassium channel; actives 0.54% (n = 310,000); B-score at 10 µM; CHO-K1 KCNQ2, FluxOR thallium flux fluorescence; hits give high values; O88943;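 active = fluorescence ratio B-score at least 3 SD of library B-scores, with initial fluorescence B-score within 3 SD, cut at about 5.3 in these data; same plate scores as AID 2156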;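 also: B-score of peak minus minimum over baseline fluorescence ratio after K+ and Tl+ stimulus; positive B-score means potentiation of KCNQ2 with more thallium influx and brighter signal; only the inactives scoring about 0 or higher are listed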
Target sequence (O88943 whole entry, looked up): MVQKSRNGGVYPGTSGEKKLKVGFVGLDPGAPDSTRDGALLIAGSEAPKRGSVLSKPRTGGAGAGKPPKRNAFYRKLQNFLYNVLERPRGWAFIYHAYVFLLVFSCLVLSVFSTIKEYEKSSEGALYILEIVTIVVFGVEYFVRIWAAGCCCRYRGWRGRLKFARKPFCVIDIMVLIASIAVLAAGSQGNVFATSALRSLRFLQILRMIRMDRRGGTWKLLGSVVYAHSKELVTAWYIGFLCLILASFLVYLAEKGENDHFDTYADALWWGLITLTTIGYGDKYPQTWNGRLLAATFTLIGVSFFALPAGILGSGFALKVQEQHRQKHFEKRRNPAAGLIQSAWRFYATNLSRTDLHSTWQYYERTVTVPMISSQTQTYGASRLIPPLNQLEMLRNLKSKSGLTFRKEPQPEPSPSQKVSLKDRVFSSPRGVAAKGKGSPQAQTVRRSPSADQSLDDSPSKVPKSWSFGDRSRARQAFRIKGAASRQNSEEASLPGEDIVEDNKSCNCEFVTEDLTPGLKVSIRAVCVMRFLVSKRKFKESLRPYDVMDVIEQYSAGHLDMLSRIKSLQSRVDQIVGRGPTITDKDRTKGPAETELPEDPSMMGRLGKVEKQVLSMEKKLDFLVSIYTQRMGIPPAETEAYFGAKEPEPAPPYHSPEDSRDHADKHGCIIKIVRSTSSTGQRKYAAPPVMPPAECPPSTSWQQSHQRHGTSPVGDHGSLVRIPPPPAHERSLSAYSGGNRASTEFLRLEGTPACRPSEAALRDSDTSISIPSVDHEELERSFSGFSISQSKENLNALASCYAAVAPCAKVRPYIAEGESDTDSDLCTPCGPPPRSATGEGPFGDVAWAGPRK
KCNQ2 pot baseline: further read-out of KCNQ2 pot, marked with its call; B-score; compound at 10 µM; measured here: initial fluorescence intensity artifact check;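 brightness before thallium and not channel activity; 0 = typical well and far values either way flag optical interference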
Active calls of the source: *; & = joins results of further samples. Some of the compounds tested, so the mix of outcomes need not match the whole.

Sample of the layout (seven entries):
(1) COc1cccc2cc(C(=O)N3CCc4ccccc43)c(=O)oc12
(2) COc1ccc(C2C(C(N)=O)=C(C)Nc3nc(-c4ccccc4)nn32)cc1OC (stereo not drawn)
(3) O=S(=O)(Nc1ccc(Cl)cn1)c1cnc(Cl)c(Br)c1
(4) CC(C)C(c1nnnn1C(C)(C)C)N1CCN(Cc2cccnc2)CC1 (stereo not drawn)
(5) OC1C(O)C(O)C(O)C(O)C1O (stereo not drawn)
(6) Cc1ccc(C(=O)NC(Cc2c[nH]c3ccccc23)C(=O)O)cc1 (stereo not drawn)
(7) CCOc1cccc(C(=O)Nc2cnn(Cc3ccccc3)c2)c1
Screen / compound no.	1	2	3	4	5	6	7
KCNQ2 pot	2.6	0.19	1.2	0.63	0.82&0.35&0.06	1.1	0.03
KCNQ2 pot baseline	-0.56	-1.8	0.16	-0.41	0.53&-0.43&0.22	-0.24	-0.48

The listing, from the start:
(1) COc1cccc2cc(C(=O)N3CCc4ccccc43)c(=O)oc12
(2) COc1ccc(C2C(C(N)=O)=C(C)Nc3nc(-c4ccccc4)nn32)cc1OC (stereo not drawn)
(3) O=S(=O)(Nc1ccc(Cl)cn1)c1cnc(Cl)c(Br)c1
(4) CC(C)C(c1nnnn1C(C)(C)C)N1CCN(Cc2cccnc2)CC1 (stereo not drawn)
(5) OC1C(O)C(O)C(O)C(O)C1O (stereo not drawn)
Screen / compound no.	1	2	3	4	5
KCNQ2 pot	2.6	0.19	1.2	0.63	0.82&0.35&0.06
KCNQ2 pot baseline	-0.56	-1.8	0.16	-0.41	0.53&-0.43&0.22

(6) Cc1ccc(C(=O)NC(Cc2c[nH]c3ccccc23)C(=O)O)cc1 (stereo not drawn)
(7) CCOc1cccc(C(=O)Nc2cnn(Cc3ccccc3)c2)c1
(8) CSc1ccc(C(=O)C2CCCN(S(=O)(=O)N(C)C)C2)cc1 (stereo not drawn)
(9) Cc1ccc(S(=O)(=O)N2CC(O)CC2C(=O)NCc2ccc3c(c2)OCO3)cc1 (stereo not drawn)
(10) CC(=O)c1ccc(NC(=S)NC(NC(=O)c2ccco2)C(Cl)(Cl)Cl)cc1 (stereo not drawn)
Screen / compound no.	6	7	8	9	10
KCNQ2 pot	1.1	0.03	0.12	0.34	0.06
KCNQ2 pot baseline	-0.24	-0.48	-0.39	1.5	-1

(11) C=C(C)CSc1nc2sc3c(c2c(=O)n1-c1ccccc1)CCN(C)C3
(12) COCCNC(=O)CSc1nnc(NC(=O)C2CC(=O)N(c3ccccc3OC)C2)s1 (stereo not drawn)
(13) COc1ccc(C(=O)NCC(=O)OCc2csc(-c3ccccc3)n2)cc1
(14) COc1ccc(OCCSc2nnc(-c3ccccc3)n2N)cc1
(15) Cc1ccc(CSc2nnc(-c3ccncc3)n2C)cc1
Screen / compound no.	11	12	13	14	15
KCNQ2 pot	0.66	0.81	2.4	0.77	0.01
KCNQ2 pot baseline	-0.76	0.04	0.17	2	1.7

(16) Cc1c(Cl)cccc1NC(=O)Cn1c(-c2ccc(F)cc2)noc1=O
(17) O=S(=O)(NCc1cccs1)c1cccc2cccnc12
(18) Cc1c(Cl)cccc1NC(=O)C(=O)NNC(=O)c1ccccc1F
(19) Cc1[nH]c(=S)c(C#N)c(C)c1Cc1ccc(Cl)cc1Cl
(20) CCOC(=S)NC(=O)c1sc2ccccc2c1Cl
Screen / compound no.	16	17	18	19	20
KCNQ2 pot	0.32	0.47	22*	0.9	21*
KCNQ2 pot baseline	0.09	0.07	3.2*	-1.5	0.45*

(21) COc1ccccc1NC(=O)CSc1nc2ccccc2c(=O)n1CCNC(C)=O
(22) Nn1c(Cc2ccccc2)nc2ccccc2c1=O
(23) Cc1cccc(C)c1NC(=O)C1CCCN1S(=O)(=O)c1ccccc1 (stereo not drawn)
(24) CC(C)(C)CC(C)(C)NCC(O)COc1ccc2c(c1)CCC2 (stereo not drawn)
(25) CCOC(=O)C1=C(CS(=O)(=O)c2ccc(F)cc2)NC(=O)NC1c1cc(OC)c(O)c(OC)c1 (stereo not drawn)
Screen / compound no.	21	22	23	24	25
KCNQ2 pot	0.41	1.8	1.5	1.1	1.1
KCNQ2 pot baseline	1.2	0.03	0.04	0.89	0.25

(26) C=CCn1c(SCC(=O)NC2CCCC2)nnc1-c1ccncc1
(27) CCCCCC(=O)Nc1ccc(S(=O)(=O)Nc2ccc(Cl)nn2)cc1
(28) NC(=O)CC(NC(=O)c1ccccc1)c1ccc(NCc2ccc(F)cc2)c([N+](=O)[O-])c1 (stereo not drawn)
(29) O=C(NNC1CC(=O)N(c2ccccc2)C1=O)c1ccc(COc2ccccc2Cl)o1 (stereo not drawn)
(30) COc1cc(C(=O)Nc2ccc3c(c2)OCO3)ccc1-n1cnnn1
Screen / compound no.	26	27	28	29	30
KCNQ2 pot	0.14	0.87	1.9	0.87	0.17
KCNQ2 pot baseline	0.02	0.01	-0.76	-1.3	-0.03

(31) CCOC(=O)c1c(NC(=O)CSc2nncs2)sc(C)c1C
(32) Cc1cc(C)cc(OC(C)C(=O)Nc2ccc3c(c2)n(C)c(=O)n3C)c1 (stereo not drawn)
(33) COCCCN(C(=O)Cc1coc2cc(C)c(C)cc12)c1c(N)n(Cc2ccccc2)c(=O)[nH]c1=O
(34) Cn1cnc(S(=O)(=O)N2CCN(c3ccc(Cl)cc3)CC2)c1
(35) COc1ccc(C(=O)CN2C(=O)c3ccccc3S2(=O)=O)cc1
Screen / compound no.	31	32	33	34	35
KCNQ2 pot	0.52	0.68	0.22	0.06	0.61
KCNQ2 pot baseline	0.04	-0.41	0.36	1.1	-1.5

(36) CCn1cc(CCC(=O)NCCN2CCOCC2)c2ccccc21
(37) Cc1ccc(NC(=O)CC2NCCNC2=O)cc1Cl (stereo not drawn)
(38) COc1ccc(NC(=O)N2CCCC(C(=O)Nc3cccc(C)c3C)C2)cc1 (stereo not drawn)
(39) COc1ccc(CN(C)Cc2nc3cc(OC)c(OC)cc3c(=O)[nH]2)c(OC)c1
(40) O=C(/C=C/c1ccccc1)Nc1ccc(C(=O)N2CCCCC2)cc1
Screen / compound no.	36	37	38	39	40
KCNQ2 pot	0.06	0.19	0.85	0.01	0.91
KCNQ2 pot baseline	2.3	-0.53	-2.3	0.14	1.5

(41) Cc1cc(NC(=S)NC(=O)C2CC2)ccc1Br
(42) CCC1=NN(C(=O)c2ccc([N+](=O)[O-])cc2)C(O)(c2ccccc2)C1 (stereo not drawn)
(43) C=CCNC(=O)CC1C(=O)NCCN1Cc1c(F)cccc1Cl (stereo not drawn)
(44) CCCCN(CC)Cc1ccc(CNC(=S)Nc2cccc(F)c2)o1
(45) COCCNC(=O)[C@@]1(C)C=C[C@@H](Cc2ccccc2)N1C(=O)c1ccccc1
Screen / compound no.	41	42	43	44	45
KCNQ2 pot	0.16	2.1	0.25	0.78	0.24
KCNQ2 pot baseline	-1	-1.6	-0.76	-0.13	-0.01

(46) COc1ccc(CCN2Cc3c(cccc3[N+](=O)[O-])C2=O)cc1OC
(47) CN1CCN(CC(=O)Nc2cc(N3CCOCC3)ccc2[N+](=O)[O-])CC1
(48) Cc1cccc(NC(=O)c2cc(NC(=O)C3CC=CCC3C(=O)O)ccc2N2CCOCC2)c1 (stereo not drawn)
(49) Cc1nc2ncnn2c(N2CCCC(C(=O)Nc3ccc4c(c3)CCC4)C2)c1C (stereo not drawn)
(50) CCOc1ccc(CCNC(=O)COC(=O)COc2ccc(C(=O)CC)cc2)cc1OCC
Screen / compound no.	46	47	48	49	50
KCNQ2 pot	1.2	0.68	0.01	0.01	0.37
KCNQ2 pot baseline	0.69	0.21	0.68	-1	1.3

(51) O=C(Nc1ccc2oc(-c3ccccc3)nc2c1)C1CCCO1 (stereo not drawn)
(52) CCn1c(Cc2cccs2)nnc1SCC(=O)c1ccc(C)cc1
(53) COc1ccccc1CNC(=S)NCc1ccc(F)cc1
(54) Cc1ccc(C)c2[nH]c(=O)c(CCNC(=O)c3ccco3)cc12
(55) COc1cc(OC)cc(C(=O)NCCC(=O)NCCc2ccc(OC)c(OC)c2)c1
Screen / compound no.	51	52	53	54	55
KCNQ2 pot	0.64	1.3	1.5	1	1.3
KCNQ2 pot baseline	0.18	-1.7	-0.55	-2.6	-0.79

(56) O=C(COc1cc2oc(=O)c3c(c2cc1Cl)CCCC3)N1C[C@H]2C[C@@H](C1)c1cccc(=O)n1C2
(57) CCCCCCCCc1c(O)nc(-n2[nH]c(C)c(CCO)c2=O)[nH]c1=O
(58) CC12/C(=N/O)C3C4CC5C3/C(=N/O)C1C5C42 (stereo not drawn)
(59) CCCc1nnc(NC(=O)Cn2c(=O)oc3ccccc32)s1
(60) CN(C)NC1CCS(=O)(=O)C1 (stereo not drawn)
Screen / compound no.	56	57	58	59	60
KCNQ2 pot	0.87	1.1	0.93	1.6	1.1
KCNQ2 pot baseline	0.07	1.1	0.08	-0.28	0.56

(61) O=C(Nc1cccc(C(F)(F)F)c1)Nc1ccon1
(62) CN(C)/C=N/c1nc(-c2ccc3c(c2)OCO3)cs1
(63) CC(=O)c1ccc(S(=O)(=O)N2CCC(c3nnc(SCCN4CCCC4)n3C)CC2)cc1
(64) NS(=O)(=O)c1cc(C(=O)OCC(=O)c2ccc3c(c2)OCCO3)ccc1Cl
(65) O=C(NCc1ccccn1)c1ccc(OC2CCN(Cc3ccc(CO)o3)CC2)cc1
Screen / compound no.	61	62	63	64	65
KCNQ2 pot	0.22	0.03	1.2	0.81	0.25
KCNQ2 pot baseline	-1.1	0.05	-0.34	0.85	-0.83

(66) CC(=O)c1c(C)[nH]c(C(=O)NCCN2CCC(C)CC2)c1C
(67) CC(NC(=O)/C(=C/c1cccc([N+](=O)[O-])c1)NC(=O)c1ccco1)C(=O)O (stereo not drawn)
(68) Cc1cc(NC(=O)c2c(-c3c(F)cccc3Cl)noc2C)no1
(69) COc1cc(C(=O)OCC(=O)N2CCCCC2C)ccc1OCc1c(C)noc1C (stereo not drawn)
(70) Cc1ccc(NC(=O)c2ccc(S(=O)(=O)N3CCCCCC3)cc2)nc1
Screen / compound no.	66	67	68	69	70
KCNQ2 pot	0.97	0.03	0.06	0.01	1.5
KCNQ2 pot baseline	-0.66	-0.2	1.8	-0.6	0.97

(71) Fc1ccc(Cn2nnnc2CN2CCN(C3CCCCC3)CC2)cc1
(72) CC1CCc2c(nc3ncnn3c2N2CCN(c3ccccc3F)CC2)C1 (stereo not drawn)
(73) CCOc1ccc(S(=O)(=O)NCCC(=O)N2CCC(Cc3ccccc3)CC2)cc1
(74) CCN(CC)CCN1C(=O)C(=O)/C(=C(/O)c2ccc(C)cc2)C1c1cccnc1 (stereo not drawn)
(75) CCNC(=O)c1ccccc1-c1nc(-c2ccccc2OC)no1
Screen / compound no.	71	72	73	74	75
KCNQ2 pot	0.09	0.42	0.75	0.33	1.8
KCNQ2 pot baseline	0.92	-0.61	-0.15	-1.9	-2.6

(76) Nc1nc(-c2cccc(NS(=O)(=O)c3ccccc3)c2)cs1
(77) CCc1nnc(NCC(=O)N2CCc3ccccc32)s1
(78) CCN(CC)S(=O)(=O)c1ccc(OC)c(NC(=O)OCc2ccccc2)c1
(79) CCCCCCn1c(N2CCCC2)nc2c1c(=O)[nH]c(=O)n2C
(80) Cc1ccnc2nc(C(=O)Nc3nc4ccccc4s3)nn12
Screen / compound no.	76	77	78	79	80
KCNQ2 pot	0.38	3	1.4	0.31	2.3
KCNQ2 pot baseline	-0.16	-0.01	-0.24	1.7	-0.75

(81) Cc1ccccc1S(=O)(=O)N(CC(O)CN1CCCCC1)c1ccccc1 (stereo not drawn)
(82) CC1CCCCC1NC(=O)Cn1ncc2ccccc21 (stereo not drawn)
(83) CC(=O)N1c2ccc(S(=O)(=O)N3CCC(C(=O)Nc4cccc(Cl)c4)CC3)cc2CC1C (stereo not drawn)
(84) O=C(Cn1cnc2c(nnn2-c2cccc(F)c2)c1=O)Nc1ccc2c(c1)OCCO2
(85) CCc1ccc2c(c1)C(c1ccncc1)=NNC(c1ccccc1)=N2
Screen / compound no.	81	82	83	84	85
KCNQ2 pot	0.24	0.08	0.6	0.87	0.14
KCNQ2 pot baseline	0.89	-0.11	0.11	1.3	3.4

(86) c1ccc(-c2csc(=Nc3cccnc3)n2CC2CCCO2)cc1 (stereo not drawn)
(87) Cc1cc(C)n(-c2ccc(C(=O)Nc3ccc4c(c3)OCO4)cc2)n1
(88) COc1cccc(OC)c1NC(=O)Cn1nc(-c2ccc3c(c2)OCCO3)ccc1=O
(89) O=C(c1ccco1)N1CCN(S(=O)(=O)/C=C/c2ccccc2)CC1
(90) CC(=O)Nc1ccc(NC(C)=O)s1
Screen / compound no.	86	87	88	89	90
KCNQ2 pot	0.01	0.01	0.34	0.55	0.71
KCNQ2 pot baseline	0.29	1	1.4	-1.5	0.87

(91) CCN(C(=O)COC(=O)CSc1ccccc1)c1c(N)n(Cc2ccccc2)c(=O)[nH]c1=O
(92) Cc1ccc(CNC(=O)C2CCCN2C(=O)Nc2cccc(Cl)c2)cc1 (stereo not drawn)
(93) Fc1ccc(/C=N\Nc2cccc(F)c2)cc1
(94) Cc1ccc(C(=O)N/C(=C/c2cccs2)C(=O)NCCCn2ccnc2)cc1
(95) O=C(CN1CCC(NC(=O)Cc2ccccc2)CC1)Nc1ccccc1Br
(96) O=C(NC(=S)NCCCN1CCOCC1)c1cccc2ccccc12
Screen / compound no.	91	92	93	94	95	96
KCNQ2 pot	1.2	1.3	0.59	0.81	1.6	0.09
KCNQ2 pot baseline	0.92	0.97	-0.44	-0.7	0	1.6
